NOMO-1 viab: STK33 inhibitor candidate reducing NOMO-1 cell viability | NOMO-1 AML viability, CellTiter-Glo luminescence, 72 h | inhibition, % (test concentration not listed) | hit rate 7.5% among 37,000;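 active means most replicates above 80%; inconclusive means exactly half above 80%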;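 further: wells of about 30 µL received 25 nL stock; 0% = median of vehicle wells and 100% = reference inhibitor level; the first replicate is given; inactives centre near 10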
* hit, by the source's call.

For O=C1NCN(c2ccccc2)C12CCN(CC1COc3ccccc3O1)CC2 (stereo not drawn) the results were NOMO-1 viab 28.7.
Screening C=CC/C=C\C/C=C\CCCCCCCc1cc(O)cc(O)c1 returned NOMO-1 viab 109.2*.
For NCC(=O)c1ccccc1 the results were NOMO-1 viab 38.6.
`CN1Cc2c(ccc3c2OCO3)[C@@H]2[C@H]1c1cc3c(cc1C[C@@H]2O)OCO3` gave NOMO-1 viab 138.2*.
Screening C=C1[C@@H](C)[C@H]2[C@H](Cc3ccccc3)NC(=O)[C@]23[C@H](OC(C)=O)C=C[C@](C)(O)C(=O)[C@@H](C)C/C=C/[C@H]3[C@@H]1O returned NOMO-1 viab 113.8*.
Cn1c2c(c3ccccc31)CCNCC2 was read as NOMO-1 viab -3.6.
Screening CCCC(=O)O[C@@H]1[C@@H](C)[C@@]2(O)[C@@H](C=C(CO)C[C@]3(O)C(=O)C(C)=C[C@@H]23)[C@@H]2C(C)(C)[C@]12OC(=O)CCC returned NOMO-1 viab 58.6.
CCN(CC)P1(=O)OC(C)(C)CC1(C)O (stereo not drawn) was read as NOMO-1 viab 12.4.
`COc1cc2c(cc1OC)C13CCN(C)CC4=CCOC5CC(=O)N2C1C5C4CC3=O` (stereo not drawn) gave NOMO-1 viab 22.8.
For CCN(CC)C(=O)N[C@@H]1C[C@@H]2c3cccc4[nH]cc(c34)C[C@H]2N(C)C1 the results were NOMO-1 viab 13.8.
Screening O=c1ccc2c(O)c3ccoc3cc2o1 returned NOMO-1 viab 19.5.
Screening N#CC(C#N)=Cc1cc(O)c(O)c(O)c1 returned NOMO-1 viab 45.4.
`C=C(C)[C@@H]1C2C(=O)O[C@H]1[C@H]1OC(=O)[C@@]34OC3C[C@]2(O)[C@@]14C` (stereo partly drawn) gave NOMO-1 viab 6.8.
c1cncc(C2=NCCC2)c1 was read as NOMO-1 viab 15.2.
`CN1CC[C@@H]2CN3CCc4cccc(c43)[C@@H]2C1` gave NOMO-1 viab -0.7.
`O=C(CCl)c1cc(Br)c(Br)s1` gave NOMO-1 viab 99.4*.
COc1ccc(CNCc2nc3ccccc3c(=O)n2-c2ccc(F)cc2)cc1 was read as NOMO-1 viab 23.8.
COc1c(CC=C(C)C)c2c(c3oc(=O)c(-c4ccc(O)cc4)c(O)c13)C=CC(C)(C)O2 was read as NOMO-1 viab 48.3.
Screening CC1OC(n2cnc3c(N)ncnc32)C[C@H]1O (stereo partly drawn) returned NOMO-1 viab 7.3.
For COc1cc(OC)c(OC)cc1CNC(C)C(O)c1ccccc1 (stereo not drawn) the results were NOMO-1 viab -0.7.

Of the compounds above, 2 have four or more nitrogen atoms.
For CCN(CC)C(=O)N[C@@H]1C[C@@H]2c3cccc4[nH]cc(c34)C[C@H]2N(C)C1 the results were NOMO-1 viab 13.8.
Screening CC1OC(n2cnc3c(N)ncnc32)C[C@H]1O (stereo partly drawn) returned NOMO-1 viab 7.3.

The list goes on:
Screening CCCCC/C=C\C/C=C\C/C=C\C/C=C\CCCC(=O)NCCO returned NOMO-1 viab -5.7.
For CCCCCc1cc(O)c2c(c1)OC(C)(C)[C@@H]1CCC(C(=O)O)=CC21 (stereo partly drawn) the results were NOMO-1 viab 20.3.
`c1ccc2c(CNCCc3c[nH]c4ccccc34)cccc2c1` gave NOMO-1 viab 106.1*.
CN1CCN(CC(=O)Nc2ccc([N+](=O)[O-])cc2C(=O)c2ccccc2)CC1 was read as NOMO-1 viab 22.7.
COC1CC(OC2C(C)OC(OC3C(C)OC(OC4C(C)OC(O[C@H]5CC[C@@]6(C)C(=CC[C@]7(O)C6CC(OC(=O)c6ccccc6)[C@@]6(C)[C@]7(O)CC[C@@]6(O)C(C)=O)C5)CC4OC)CC3OC)CC2OC)OC(C)C1O (stereo partly drawn) was read as NOMO-1 viab 119.5*.
`O=c1c2ccccc2nc(CNCC2CCCO2)n1-c1ccc(F)cc1` (stereo not drawn) gave NOMO-1 viab -20.4.
Screening c1ccc2c(c1)[I+]c1ccccc1-2 returned NOMO-1 viab 141.3*.
Screening CC(C)(O)[C@H]1O[C@H]2CC[C@@]3(C)[C@@](O)(CC[C@H]4Cc5c([nH]c6ccccc56)[C@@]43C)C2=CC1=O returned NOMO-1 viab inconclusive.
`C[C@H](N)C(=O)N[C@@H](C)C(=O)N[C@@H](Cc1ccccc1)C(=O)CCl` gave NOMO-1 viab 114.4*.
O=C(c1ccccc1)C12CN3CN(CN(C3)C1)C2 was read as NOMO-1 viab -14.9.
Screening C=CC(C)(C)c1cc2cc3c(cc2oc1=O)O[C@H](C(C)(C)O)C3 returned NOMO-1 viab 45.2.
CN1CCc2cc(O)cc3c2[C@H]1Cc1ccc(O)c(O)c1-3 was read as NOMO-1 viab 104.9*.
Screening Cc1cc(OCC(=O)N(C)C)c2c3c(c(=O)oc2c1)CCCC3 returned NOMO-1 viab -5.6.
`OCC1OC(n2cnc3cc(Cl)c(Cl)cc32)[C@@H](O)[C@H]1O` (stereo partly drawn) gave NOMO-1 viab 39.8.
`O=c1cccc2n1CC1CNC[C@H]2C1` gave NOMO-1 viab 3.7.
CCNC(=O)[C@H]1O[C@@H](n2cnc3c(N)ncnc32)C(O)[C@H]1O (stereo partly drawn) was read as NOMO-1 viab 0.9.
Screening CCCC(C)n1[nH]c(=O)c2c1NC(=O)CSC2c1cccc([N+](=O)[O-])c1 (stereo not drawn) returned NOMO-1 viab 15.2.
`COc1ccc(C[C@H]2NC[C@H](O)[C@H]2OC(C)=O)cc1` gave NOMO-1 viab 120.0*.
COC(=O)[C@@]12C(=O)C(C)C(=O)[C@]1(C)C(C)=C[C@H]1[C@]3(C)CC[C@H](OC(C)=O)C(C)(C)[C@H]3CC[C@@]12C (stereo partly drawn) was read as NOMO-1 viab 17.0.
Screening Cc1cc(C(F)F)n2nc(C(=O)Nc3ccc4c(C(F)(F)F)cc(=O)oc4c3)nc2n1 returned NOMO-1 viab 13.0.

Retrieved by compound from above:
CCNC(=O)[C@H]1O[C@@H](n2cnc3c(N)ncnc32)C(O)[C@H]1O (stereo partly drawn) was read as NOMO-1 viab 0.9.
`C=C(C)[C@@H]1C2C(=O)O[C@H]1[C@H]1OC(=O)[C@@]34OC3C[C@]2(O)[C@@]14C` (stereo partly drawn) gave NOMO-1 viab 6.8.
CCN(CC)P1(=O)OC(C)(C)CC1(C)O (stereo not drawn) was read as NOMO-1 viab 12.4.
`C[C@H](N)C(=O)N[C@@H](C)C(=O)N[C@@H](Cc1ccccc1)C(=O)CCl` gave NOMO-1 viab 114.4*.
Screening CCCC(C)n1[nH]c(=O)c2c1NC(=O)CSC2c1cccc([N+](=O)[O-])c1 (stereo not drawn) returned NOMO-1 viab 15.2.

For convenience, some entries already given:
`COc1ccc(C[C@H]2NC[C@H](O)[C@H]2OC(C)=O)cc1` gave NOMO-1 viab 120.0*.
COC(=O)[C@@]12C(=O)C(C)C(=O)[C@]1(C)C(C)=C[C@H]1[C@]3(C)CC[C@H](OC(C)=O)C(C)(C)[C@H]3CC[C@@]12C (stereo partly drawn) was read as NOMO-1 viab 17.0.

Additional compounds.
`O=C1c2ccccc2-c2cccc3cccc1c23` gave NOMO-1 viab 7.6.
`N#Cc1nn(-c2c(Cl)cc(C(F)(F)F)cc2Cl)c(N)c1S(=O)C(F)(F)F` (stereo not drawn) gave NOMO-1 viab 33.3.
CC12CC[C@H]3C(CCC4(O)CC(O)CCC34O)C1(O)CCC2C1=CC(=O)OC1 (stereo partly drawn) was read as NOMO-1 viab 6.4.
Screening CCCCc1ccc(C(=O)O)nc1 returned NOMO-1 viab 5.5.
For CCOC(=O)C1=NN(c2ccc(C)cc2)C2c3cccc4cccc(c34)C12 (stereo not drawn) the results were NOMO-1 viab 22.4.
`CCOC(=O)c1c(C)n(Cc2ccccc2)c2ccc(OCC(O)CNC(C)(C)C)cc12` (stereo not drawn) gave NOMO-1 viab 116.8*.
For COc1ccc(CC2c3cc(OC)c(OC)cc3CCN2C)cc1OC (stereo not drawn) the results were NOMO-1 viab 7.1.
CC(C)[C@@]1(NC(=O)[C@@H]2C[C@@H]3c4cccc5[nH]cc(c45)C[C@H]3N(C)C2)O[C@@]2(O)[C@@H]3CCCN3C(=O)[C@H](Cc3ccccc3)N2C1=O was read as NOMO-1 viab 60.1.
C=C(C)Cc1c(C)nc(SCC(=O)c2ccc(Cl)cc2)nc1OC(=O)N(C)C was read as NOMO-1 viab -12.0.
`Cc1ccccc1NC1=NCC(C)(C)S1` gave NOMO-1 viab -3.1.
Screening FC(F)(F)c1ccc2c(c1)N(CCCN1CCN(CCCl)CC1)c1ccccc1S2 returned NOMO-1 viab 98.7*.
`C[C@@H]1O[C@@H](OC2CCC3(C)C4CCC5(C)C(C6=CC(=O)OC6)CCC5(O)C4CC[C@H]3C2)[C@H](O)[C@H](O)[C@H]1O` (stereo partly drawn) gave NOMO-1 viab 108.9*.
`C=C1[C@@H](C)[C@H]2[C@H](Cc3ccccc3)NC(=O)[C@]23OC(=O)/C=C\[C@H](O)CCC[C@@H](C)C/C=C/[C@H]3[C@@H]1O` gave NOMO-1 viab 120.1*.
CN1CCc2nc3sc(C(=O)C(C)(C)C)c(N)c3cc2C1 was read as NOMO-1 viab 122.0*.
For CC(C)(O)c1cc(O)c2c(c1)CCC1C(C)(C(=O)O)CCCC21C (stereo not drawn) the results were NOMO-1 viab -6.2.
`C[C@]12CC[C@H](O)C[C@H]1CCC1C2CC[C@]2(C)[C@@H](C3=CC(=O)OC3)[C@@H](O)C[C@]12O` (stereo partly drawn) gave NOMO-1 viab 97.3*.
`CC1=CC2/C=C(\C)CCC(O)C(O)/C=C/C(=O)C23C(=O)NC(CC(C)C)C3C1C` (stereo not drawn) gave NOMO-1 viab 121.3*.
C[C@@H]1O[C@@H](O[C@@H]2C=C3CCC4C(CC[C@]5(C)[C@@H](c6ccc(=O)oc6)CC[C@]45O)[C@@]3(C)CC2)[C@H](O)[C@H](O)[C@H]1O (stereo partly drawn) was read as NOMO-1 viab 119.7*.
Screening Cc1ccc(N2C(=O)NC(=O)C(CCc3ccccn3)(Cc3cccs3)C2=O)cc1 (stereo not drawn) returned NOMO-1 viab 15.7.
Screening CO[C@H]1C[C@H](OC2CCC3(C)C4CCC5(C)C(C6=CC(=O)OC6)CC(OC(C)=O)C5(O)C4CC[C@H]3C2)O[C@@H](C)[C@@H]1O (stereo partly drawn) returned NOMO-1 viab 108.6*.
For CCOC(=O)c1c(NC(=O)C2C(C)(C)C2(C)C)sc2c1CCC2 the results were NOMO-1 viab 14.9.
For CCOC(=O)c1cc(C(C)(C)C)nc(OC(=O)N(C)C)c1C#N the results were NOMO-1 viab 101.0*.
`C[C@@H]1CN(C2CCC(C#N)(c3ccc(F)cc3)CC2)CC[C@]1(C(=O)O)c1ccccc1` (stereo partly drawn) gave NOMO-1 viab -13.3.
For CC[C@@]1(O)C(=O)OCc2c1cc1n(c2=O)-c2cc3ccccc3nc2C1 the results were NOMO-1 viab 142.5*.
For COc1nc(NC(C)C)nc(NC(C)C)n1 the results were NOMO-1 viab -23.3.
Screening N#CC(C#N)=NNc1ccc(OC(F)(F)F)cc1 returned NOMO-1 viab 141.3*.
Screening c1cncc(C2Nc3ccccc3-n3cccc32)c1 (stereo not drawn) returned NOMO-1 viab 72.4.
Screening O=[N+]([O-])c1c(NCCO)ccc2nonc12 returned NOMO-1 viab 5.8.
For CCOc1cc(CN2CCN(C(=O)COc3ccc(C)cc3)CC2)ccc1OC the results were NOMO-1 viab 26.8.
O=c1c2ccccc2nc(CSc2ncnc3nc[nH]c23)n1-c1ccccc1Cl was read as NOMO-1 viab 15.9.
`C/C=C1/CN2C3Cc4c([nH]c5ccc(O)cc45)C2(O)CC1C3CO` (stereo not drawn) gave NOMO-1 viab 19.7.

Screens as filed in PubChem.

Not all compounds are listed, so the mix of outcomes need not match the whole.
